Source: PubChem
HNF4A DNA FP – change in binding of human HNF4 alpha to DNA; HNF4a-FITC DNA binding, fluorescence polarization, 1 h; P41235; actives 0.3% (n = 360,000); activity change, % at 10 µM; in the data active means activity change above about 30%, passing the limit was not always enough;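 further: controls were the assay level and a saturating level of protein; the project sought stronger binding though the title names inhibitors; some compounds called inactive have numbers as strong as hits; positive values seem to mean higher polarization but the record does not say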
E coli growth – blocks Escherichia coli growth | OD600, 23 h; hits give low values | OD600 absorbance (concentration not given with the values) | actives 0.21% (n = 330,000);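 active means OD600 absorbance below the run mean of sample wells minus 3.6 SD, in any replicate, cut at about 0.56 in these data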;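 further: stock transfer was 300 nL into about 60 µL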
rRNA inh HTS – inhibitors of bacterial rRNA selective over humanized ribosomes | AID 720706 | actives 1.6% (n = 350,000) | E. coli WT GFP vs humanized-ribosome RFP mutants, fluorescence, 24 h; hits give low values; DMSO median 0, no signal -100 | GFP signal change (wild-type ribosome), % (no concentration beside the values);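 active means significant combined selectivity score with lowered wild-type GFP, culture density cut under 30%, mutant RFP and density less affected; inactive means any of these conditions unmet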; further: one replicate is shown; some compounds called inactive have numbers as strong as hits
Vif A3G – inhibitors of Vif binding to APOBEC3G peptide, primary screen, biochemical, TR-FRET, GST-Vif 1-94, biotin-A3G peptide, dose response retest (AID 1117319) | TR-FRET GST-Vif / biotin-A3G peptide binding; higher % means a stronger effect; test concentration not given here; strong numbers were not always called active | inhibition, %, or IC50 in µM where a hit was titrated | actives 0.57% (n = 260,000);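 active means above the screen mean plus three standard deviations and confirmed in dose response; inconclusive means results disagree or hit not tested in dose response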;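 further: Vif residues 1-94 fused to GST binding biotinylated APOBEC3G peptide 110-148; 0% = full assay without inhibitor and 100% = GST in place of GST-Vif; retest series ran down from 100 µM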
FGF22 binding – FGF22 (human) thermal shift binding; Q9HCT0; actives 1.5% (n = 340,000); AID 651658; calls only at 9.99 µM; recombinant FGF22 thermal shift, SYPRO orange fluorescence; percent of sucrose octasulfate shift, DMSO zero;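 active means melting point raised past a set limit in the mean and every replicate; inconclusive means no clear call; three in four hits are not shown here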
Target sequence (Q9HCT0 whole entry, looked up): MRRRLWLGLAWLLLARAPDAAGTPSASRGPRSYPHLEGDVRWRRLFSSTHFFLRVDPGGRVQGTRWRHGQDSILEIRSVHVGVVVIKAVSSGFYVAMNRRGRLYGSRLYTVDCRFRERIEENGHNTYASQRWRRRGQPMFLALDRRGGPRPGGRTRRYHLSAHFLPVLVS
MLL AF4-AF9 inh – MLL-AF4/AF9 protein interaction inhibition; actives 0.47% (n = 350,000); AlphaScreen, biotin-AF4 peptide binding to FLAG-AF9; AID 651704; inhibition, % at 10 µM; P42568;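 active means every replicate reaching a set inhibition limit, whatever the replicate mean, cut at about 25% in these data; inconclusive means mean inhibition reaches that limit but some replicates miss it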;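 further: 0% = plate neutral control median and 100% = total signal loss; the record names both 10 and 1 µM as test concentration; the first replicate is given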
Target sequence (P42568 whole entry, looked up): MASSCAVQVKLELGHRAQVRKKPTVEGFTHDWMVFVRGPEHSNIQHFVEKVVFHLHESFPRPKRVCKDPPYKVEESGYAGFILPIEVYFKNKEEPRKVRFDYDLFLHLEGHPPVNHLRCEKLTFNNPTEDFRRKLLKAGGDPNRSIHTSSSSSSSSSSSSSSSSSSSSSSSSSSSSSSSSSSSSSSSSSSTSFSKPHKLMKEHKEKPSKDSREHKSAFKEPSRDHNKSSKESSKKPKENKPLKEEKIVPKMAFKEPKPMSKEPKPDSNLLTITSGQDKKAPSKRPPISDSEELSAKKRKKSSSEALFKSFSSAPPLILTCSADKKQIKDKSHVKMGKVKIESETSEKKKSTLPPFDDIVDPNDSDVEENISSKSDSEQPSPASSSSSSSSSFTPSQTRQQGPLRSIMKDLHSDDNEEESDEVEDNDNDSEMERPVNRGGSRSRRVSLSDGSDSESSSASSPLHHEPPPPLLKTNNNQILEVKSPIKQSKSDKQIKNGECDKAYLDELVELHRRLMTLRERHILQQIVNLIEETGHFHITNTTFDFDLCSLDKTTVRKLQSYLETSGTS
ALR H2O2 inh – blocks human ALR sulfhydryl oxidase activity; purified ALR, DTT oxidation, H2O2 HRP-luminol luminescence; P55789; inhibition, % (test concentration not listed); actives 3.8% (n = 290,000);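 active means mean and each replicate at 75% or more; inconclusive means only one of the two met; inactive means neither met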;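 further: stock transfer was 7.5 nL into about 7.5 µL; 0% = neutral wells and 100% = wells with inactivated enzyme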
Target sequence (P55789 whole entry, looked up): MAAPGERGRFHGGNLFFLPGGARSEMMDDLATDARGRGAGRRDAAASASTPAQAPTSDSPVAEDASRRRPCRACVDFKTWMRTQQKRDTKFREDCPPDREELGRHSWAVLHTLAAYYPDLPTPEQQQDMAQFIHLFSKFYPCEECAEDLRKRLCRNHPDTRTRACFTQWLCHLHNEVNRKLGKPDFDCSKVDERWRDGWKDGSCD
rRNA inh HTS OD600 – second read-out of rRNA inh HTS, no call of its own (marks repeat the call); OD600 change, %; measured here: OD600 growth;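 optical density of the mix in the first replicate; 0 = DMSO median and -100 = no signal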
rRNA inh HTS RFP – recorded beside rRNA inh HTS, whose call it bears; RFP signal change, %; measured here: RFP humanized mutant strains;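 first replicate; 0 = DMSO median and -100 = no signal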
The depositor's hits bear a star; i = inactive; ? = inconclusive; . = no result given; & = joins results of further samples. Only part of the results is shown; the hit share may differ from the screen's.

SMILES | HNF4A DNA FP | E coli growth | rRNA inh HTS | rRNA inh HTS OD600 | rRNA inh HTS RFP | Vif A3G | FGF22 binding | MLL AF4-AF9 inh | ALR H2O2 inh
CN(C(=O)COC(=O)C1c2ccccc2Oc2ccccc21)C1CCS(=O)(=O)C1 (configuration not stated) | 2.7 | 0.77 | . | . | . | 8% | . | . | 2
COc1cc(OC)nc(Oc2ccccc2C(=O)Oc2cccc(C)c2)n1 | 2.8 | 0.69 | . | . | . | 0% | . | . | -4
COCC(=O)N1C[C@@H](C)[C@@H](OC)CN(C)C(=O)c2cc(NC(=O)c3cc(C)on3)ccc2OC[C@H]1C | . | . | -2 | -2 | -1.4 | . | i | -6.2 | .
CS(=O)(=O)N1Cc2ccccc2CC1C(=O)OCC(=O)NCc1ccccc1 (configuration not stated) | -1.3 | 0.72 | 0 | -4 | 0.3 | -9% | i | 1.1 | -2
CC(C)(C)c1ccc(C2(C)NC(=O)N(CC(=O)NC3CCS(=O)(=O)C3)C2=O)cc1 (configuration not stated) | -4.8 | 0.67 | 11 | 12 | 0.9 | 8% | i | -0.2 | .
C[C@H](CO)N1C[C@H](C)[C@H](CN(C)Cc2ccc(Cl)c(Cl)c2)Oc2ccc(NC(=O)CCCCCC(=O)Nc3ccccc3N)cc2C1=O | . | . | -9 | -33 | 4.7 | . | i | -2.6 | .
Cc1ccc(C(=O)NC(=S)Nc2ccc(NC(=O)c3cccc(Cl)c3)cc2)cc1 | -0.5 | . | 5 | 1 | 4.4 | . | i | -13 | -2
CN(C)CC(O)COC(c1ccc(Cl)cc1)c1ccc(Cl)cc1 (configuration not stated) | 2.4 | 0.66 | -47 | -68 | -7.9 | -8% | i | 5.3 | 0
C[C@@H]1CN([C@@H](C)CO)C(=O)c2cc(NS(=O)(=O)c3cccs3)ccc2O[C@@H]1CN(C)C(=O)NC1CCCCC1 | . | . | -3 | 2 | 1.9 | . | i | -0.7 | .
O=C(COC(=O)C1CC2CCCC(C1)C2=O)Nc1ccc(Cl)cn1 (configuration not stated) | 3.3 | 0.68 | 3 | 7 | -0.1 | . | i | -2.1 | .
CSc1nc2n(n1)C(c1ccccn1)C1=C(CC(C)(C)CC1=O)N2 (configuration not stated) | 0.1 | 0.75 | . | . | . | 2% | . | . | 1
CCOc1ccccc1C(=O)Nc1cnn(Cc2ccc(F)cc2)c1 | 2.0 | 0.69 | . | . | . | 16% | . | . | -16
COc1ccc2nc(NC(=O)c3cccc(-c4cc5ccccc5oc4=O)c3)sc2c1 | -3.7 | 0.67 | . | . | . | . | . | . | -9
Cc1nn(CCC(=O)NNC(=S)NCC(C)C)c(C)c1Br | 1.8 | 0.71 | 1 | 2 | 3.8 | 4% | i | 4.8 | 20
CC1=C(C(=O)NC2CC(C)(C)Cc3c2cnn3-c2ccc(C)cc2)OCCO1 (configuration not stated) | 9.9 | 0.73 | -2 | 3 | 1.1 | . | i | -0.3 | -17
CCN(CC)CCN1C(=O)C(=O)/C(=C(/O)c2ccc(OC(C)C)cc2)C1c1ccncc1 (configuration not stated) | -0.9 | 0.76 | . | . | . | -1%&-5% | . | . | 2
Cc1cccc([N+](=O)[O-])c1NC(=O)COC(=O)c1nc2nccc(C)n2n1 | 0.1 | 0.66 | 17 | 19 | -1.7 | -6% | i | -0.9 | .
O=C1CC(c2ccco2)CC(O)=C1C=Nc1cc(Cl)ccc1O (configuration not stated) | -11 | 0.73 | . | . | . | 4.5µM* | . | . | 2
O=C(Cc1ccccc1)N/N=C/c1cc(Br)cc(Cl)c1O | -3.7 | . | 19 | 15 | 0.9 | . | i | -0.7 | 2
COc1ccc2[nH]c3c(NCCC4=CCCCC4)ncnc3c2c1 | -4.5 | 0.6 | -54* | -11* | -17* | . | i | 4.7 | .
N#CC1=C(N)Oc2ccc3ccc(O)cc3c2C1c1ccsc1 (configuration not stated) | -120 | 0.68 | 19 | -8 | 54 | . | i | 3.5 | .
CCOc1cc(/C=C2\C(=N)N3N=C(S(=O)(=O)CC)SC3=NC2=O)ccc1OC(=O)c1ccco1 | 9.6 | 0.7 | -3 | 1 | -0.3 | . | . | -3.7 | 37
COC(=O)C1CCN(S(=O)(=O)c2ccc(Br)s2)CC1 | 11 | 0.69 | -2 | -3 | 0.9 | -9% | i | -3.5 | .
Oc1ccccc1C=NC1=NN(c2cccc(C(F)(F)F)c2)CC1 | -0.3 | 0.69 | -1 | 2 | 1.4 | 2% | . | . | 78*

By substructure, those above with fluorine.
SMILES | HNF4A DNA FP | E coli growth | rRNA inh HTS | rRNA inh HTS OD600 | rRNA inh HTS RFP | Vif A3G | FGF22 binding | MLL AF4-AF9 inh | ALR H2O2 inh
CCOc1ccccc1C(=O)Nc1cnn(Cc2ccc(F)cc2)c1 | 2.0 | 0.69 | . | . | . | 16% | . | . | -16
Oc1ccccc1C=NC1=NN(c2cccc(C(F)(F)F)c2)CC1 | -0.3 | 0.69 | -1 | 2 | 1.4 | 2% | . | . | 78*

Additional records
SMILES | HNF4A DNA FP | E coli growth | rRNA inh HTS | rRNA inh HTS OD600 | rRNA inh HTS RFP | Vif A3G | FGF22 binding | MLL AF4-AF9 inh | ALR H2O2 inh
COc1ccc(OCc2ccc(C(=O)O)cc2)cc1 | 1.9 | 0.68 | . | . | . | 0% | . | . | 26
Cc1noc(C)c1NC(=O)N(C)C[C@H]1Oc2ccc(NC(=O)Nc3ccc(C(F)(F)F)cc3)cc2C(=O)N([C@H](C)CO)C[C@@H]1C | 2.4 | 0.79 | 1&9 | -6&1 | 1.0&12 | . | i | 1.4&0.7 | -1
O=C(COc1ccc(Br)cc1)NCCCn1ccnc1 | 1.0 | 0.68 | 2 | 11 | -0.9 | . | i | -10.0 | 0
C[C@@H]1CN([C@@H](C)CO)C(=O)c2cc(NS(=O)(=O)c3ccccc3)ccc2O[C@@H](C)CCCCO[C@@H]1CN(C)S(=O)(=O)c1ccccc1 | . | . | -4 | -3 | -0.9 | . | i | 1.8 | .
COC(=O)C1=C(O)/C(=C\c2ccc(OCC(=O)Nc3ccccc3OC)cc2)N=C1C | 1.8 | 0.68 | 4 | 2 | 2.2 | . | i | 0.9 | 4
COC(=O)Cn1c(=O)cnc2ccccc21 | 4.5 | 0.72 | 7 | 9 | -2.3 | -8% | . | . | 1
CO[C@@H]1CN(C)C(=O)c2cc(NC(=O)c3nc4ccccc4s3)ccc2OC[C@H](C)N(Cc2cccnc2)C[C@@H]1C | . | . | -6 | -3 | 22 | . | i | 6.2 | .
CC(=O)N1c2ccc(S(=O)(=O)N3CCCC3)cc2CC1C(=O)NCc1ccccc1F (configuration not stated) | 1.3 | 0.68 | 5 | -5 | -4.7 | . | i | -1.1 | -2
O=C(NCCc1ccccc1)c1ccc(CS(=O)Cc2ccc(Cl)cc2)o1 (configuration not stated) | -5.8 | 0.59 | 4 | -14 | 14 | . | i | -1.0 | -3
O=C(C[C@@H]1CC[C@H](NC(=O)CCN2CCCCC2)[C@H](CO)O1)Nc1ccc(-c2ccccc2)cc1 | . | . | 1 | -1 | 1.7 | . | i | 4.4 | .
O=C(CCC1CCN(C(=O)c2cc(C(F)(F)F)ccc2Cl)CC1)NC1CC1 | 0.1 | 0.7 | 4 | 8 | -2.0 | . | i | 1.4 | 1
C/C(=N\NC(=O)CCC(=O)N/N=C(\C)c1ccc(C)o1)c1ccc(C)o1 | 2.7 | . | 12 | 17 | 4.7 | . | . | 3.7 | 6
Cc1csc(SCC(=O)NC2CCCC2)n1 | 5.3 | 0.66 | 5 | 3 | -6.8 | . | i | 0.9 | 15
O=C1c2ccccc2C(=O)N1Cc1nc2ccccc2c(=O)n1CCN1CCOCC1 | 3.0 | 0.69 | . | . | . | . | . | . | -4
NC(=O)c1ccsc1NC(=O)CSc1nc2ccccc2c(=O)n1CCCO | 3.4 | 0.69 | . | . | . | -4% | . | . | 10
N#C[C@H]1[C@@H](c2ccc(C#Cc3ccc(F)cc3)cc2)[C@H](CO)N1C(=O)C1CCC1 | . | . | 4 | 24 | -3.0 | . | i | 1.0 | .
CC1(C(=O)NS(=O)(=O)c2ccccc2)CCN1C(=O)c1ccc(C2CCCCC2)cc1 (configuration not stated) | 0.9 | . | 0 | -4 | -0.2 | . | i | 0.1 | .
COc1ccc(CN2CC(=O)N(c3cccc(Cl)c3)C2=S)cc1OC | 2.5 | 0.68 | -17 | -7 | 2.5 | -2% | i | -6.2 | 3
O=C(Cn1c(C(F)(F)F)nc2ccccc21)Nc1ccccc1N1CCOCC1 | 2.7 | 0.71 | . | . | . | 10% | . | . | -3
C1CN(CC2COC(CN3CCOCC3)CO2)CCO1 (configuration not stated) | -1.2 | 0.65 | 6 | 9 | -2.9 | -7% | i | -2.3 | .
O=C1C(Cl)=C(N2CCOCC2)C(=O)N1c1ccc(Br)cc1 | -1.1 | 0.66 | -8 | -2 | 4.3 | 12% | i | 0.8 | 5
COc1ccc(/C=N/NC(=O)c2ccc(Br)cc2)cc1CN1CCOCC1 | 4.5 | . | 1 | 3 | 1.4 | -6% | i | 3.9 | -2
CN(C)CCN(C(=O)c1cc(Cl)sc1Cl)c1nc2ccc(F)cc2s1 | 1.7 | 0.71 | -2 | -1 | -8.2 | . | i | 13 | 0
Cc1cc(NC(=O)CSCC(=O)N(c2ccc(F)cc2)C(C(=O)NC2CCCCC2)c2ccc(O)c(O)c2)no1 (configuration not stated) | -0.9 | 0.71 | . | . | . | . | . | . | -3
CCOC(=O)/C(C#N)=C/c1ccc(OC)c(OC)c1 | 1.3 | 0.7 | . | . | . | -2% | . | . | -1
COc1ccc2c3c([nH]c2c1)[C@H](CO)N(C(=O)c1ccncc1)CC31CCN(C(=O)CC2CC2)CC1 | . | . | 0 | 4 | -2.2 | . | i | 0.4 | .
O=C(NCCc1cccc(Cl)c1)c1cc([N+](=O)[O-])ccc1Cl | 3.9 | 0.66 | . | . | . | . | . | . | 0
Cc1nc2cc(NC(=O)c3ccc(N4C(=O)CCC4=O)cc3)ccc2s1 | 3.7 | 0.68 | 9 | 8 | 1.0 | . | i | -1.3 | -39
CCOCCn1c(C(C)C)nc2ccccc21 | -0.5 | 0.72 | . | . | . | -3% | . | . | -2
COc1ccc(C2Cc3ccccc3C(=O)O2)cc1 (configuration not stated) | 0.7 | 0.64 | . | . | . | -2% | . | . | -1
CCCCc1cc(=O)oc2cc(OCC(=O)N3CCc4ccccc43)ccc12 | 3.3 | 0.68 | . | . | . | 8% | . | . | 3
CCC(C)(C)NC(=O)C(OC(=O)c1ccco1)c1ccccc1OC (configuration not stated) | 4.4 | 0.69 | . | . | . | 3% | . | . | .
Cc1ccc(N=C(NOC(=O)c2ccccc2)c2nonc2N)c(C)c1 | 1.9 | 0.75 | . | . | . | 24% | . | . | .
O=C(CCOc1ccccc1)Nc1ccccc1[N+](=O)[O-] | 13 | 0.65 | -1 | 0 | -2.7 | 6% | i | 0.2 | -11
Cc1ccccc1S(=O)(=O)NCC[C@@H]1CC[C@H](NC(=O)C2CCC2)[C@@H](CO)O1 | . | . | 0 | 3 | 1.4 | . | i | -3.9 | .
COc1ccc2sc(NC(=O)c3ccco3)nc2c1 | -2.3 | 0.68 | 8 | 11 | 7.1 | 0% | i | 4.2 | -14
Cc1ccc(/C=c2\s/c(=C(/C#N)C(=O)N3CCCC3)n(Cc3ccco3)c2=O)s1 | 1.4 | . | -19 | -12 | 11 | 24%&14% | . | . | .
CCCCC(CC(C)O)c1n[nH]c(=S)n1-c1ccccc1 (configuration not stated) | 2.0 | 0.69 | 8 | -3 | 1.1 | . | i | -5.0 | ?
O=C(Nc1ccc(F)cc1)c1ccc2ncsc2c1 | -0.7 | 0.63 | -6 | 0 | 0.1 | -12% | i | -0.4 | .
